# Screens from PubChem.
# PABP polyA inh: blocks human PABP binding to poly(A) RNA; P11940; fluorescence polarization; inhibition, % at 35 µM; hit rate 1% among 290,000; AID 2014;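 active = 50% or more with normal probe brightness, or confirmed in later tests; inconclusive = above 50% with abnormal brightness, or retests that disagree; inactive = below 50% or failed in later tests; about a fifth of its hits are not listed in these tables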;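 also: calls also rest on retests at 20 µM and on dose response follow-up; controls were probe without protein and protein plus probe with vehicle; some compounds called inactive have numbers as strong as hits; many hits fall short of the cut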
# Rce1 inh: blocks yeast Ras-converting enzyme. Q03530. yeast membranes, quenched prenylated peptide cleavage fluorescence. calls only. hit rate 0.27% among 290,000. AID 2563;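 active = fall in fluorescence gain of 50% or more versus controls, with final raw signal at or below 3038400; inconclusive = same 50% fall but final raw signal above 3038400; inactive = fall in fluorescence gain under 50%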;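 also: plate controls were neutral control wells for no effect and wells lacking membranes for full effect; tested at 10 µM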
# Target sequence (Q03530 whole entry, looked up): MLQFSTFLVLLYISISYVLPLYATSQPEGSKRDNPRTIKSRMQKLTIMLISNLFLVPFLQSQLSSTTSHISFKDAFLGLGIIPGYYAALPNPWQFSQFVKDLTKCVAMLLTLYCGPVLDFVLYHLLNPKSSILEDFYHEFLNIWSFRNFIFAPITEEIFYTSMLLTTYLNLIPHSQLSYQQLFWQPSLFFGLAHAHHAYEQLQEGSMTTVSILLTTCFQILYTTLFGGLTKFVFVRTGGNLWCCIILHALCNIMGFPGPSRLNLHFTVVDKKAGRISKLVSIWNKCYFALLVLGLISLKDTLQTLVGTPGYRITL
# CSC inhib: cancer stem cell inhibition; cancer stem cell-like cells viability, luminescence; inhibition, % at 7.5 µM; hit rate 1.1% among 300,000;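 active = mean at 75% or more and at least half the replicates too; inconclusive = mean and replicates disagree; tested in HMLE shEcad cells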;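 also: 0% = median of negative and 100% = median of positive control wells; the first replicate is given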
# eIF4H FP inh: inhibitors of RNA binding by human eIF4H; eIF4H fluorescence polarization binding assay; inhibition, % at 35 µM; hit rate 0.94% among 290,000; AID 2012;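 active = 50% or more with normal probe brightness, or confirmed in later tests; inconclusive = above 50% with abnormal brightness, or retests that disagree; inactive = below 50% or failed in later tests; about a fifth of its hits are not listed in these tables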;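 also: calls also rest on retests at 20 µM and on dose response follow-up; 0% = protein and probe with vehicle and 100% = probe without protein; strong numbers were not always called active; many hits fall short of the cut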
# MT1-MMP act inh: inhibitors of human MT1-MMP activation; AID 651647; hit rate 0.061% among 360,000; P50281; GFP/RFP ratio change, % at 20 µM; HT1080 RFP-PRO-GFP cells, GFP/RFP ratio fluorescence, overnight; percent of plate control window, DMSO zero;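 active = GFP/RFP ratio change of at least 30% with cell ATP level not reduced by more than half and red fluorescence within 50% of control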; also: strong numbers were not always called active
#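 Assay system: HT1080 RFP-PRO-GFP cells. Benchmarks: DMSO vehicle wells and RFP-L50D-GFP reporter cell wells. Times: overnight cell settling, then overnight compound exposure, 37 °C, 5% CO2. Compound: 20 µM single dose, 1% DMSO. Read-out basis: GFP/RFP fluorescence ratio.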
# UUG fidelity: yeast start codon fidelity modulation; S. cerevisiae UUG-firefly luciferase reporter, luminescence/redox ratio; activity score, % at 18.7 µM; hit rate 0.13% among 350,000;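 active = replicate mean at a twofold rise or more, about +100% in these data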;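 also: firefly luciferase made from a UUG start codon reports start codon fidelity; reporter light over untreated wells divided by growth signal over untreated wells; some hits fall short of that in this replicate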
# HIV Env fusion: blocks HIV Env-driven cell-cell fusion | inhibition, % at 12.3 µM | AID 651610 | hit rate 1.1% among 360,000 | HeLa-JRFL Env/CEM21 cell fusion, luciferase;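 active = mean replicate inhibition score of at least 50 and every replicate individually at or above 50; inconclusive = only one of the two criteria met; inactive = mean below 50 and not all replicates reaching 50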;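 also: 0% = plate neutral controls and 100% = maraviroc near 300 nM; one replicate is shown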
# eIF4H FP inh retest: second read-out of eIF4H FP inh, no call of its own (marks repeat the call); inhibition, %; compound at 20 µM; confirmation average;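 mean of two retest wells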
# PABP polyA inh retest: further read-out of PABP polyA inh, marked with its call; inhibition, %; compound at 20 µM; confirmation repeats;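 mean of two retest wells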
# MT1-MMP act inh RFP: also measured in MT1-MMP act inh; calls as there; RFP signal change, %; measured here: RFP expression control read;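 0 = vehicle wells; hits needed this value within 50% of zero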
# Numbers without * were called inactive; i = inactive; ? = inconclusive; · = not tested or not shown; & = joins results of further samples. Some of the compounds tested (hit frequency here may not be typical).
SMILES,PABP polyA inh,Rce1 inh,CSC inhib,eIF4H FP inh,MT1-MMP act inh,MT1-MMP act inh RFP,UUG fidelity,HIV Env fusion,others
O=C(O)C1CCN(C(=O)COc2ccc3c4c(c(=O)oc3c2)CCCC4)CC1,-7.2,i,11.3,-14.6,0.1,1.4,-15.0,·,
O=C(O)c1c(Cl)c(Cl)c(Cl)c(Cl)c1C(=O)OCC1CCCO1 (configuration not stated),·,·,·,·,-1.9,4.7,4.8,2.6,
CCOC(=O)CCS(=O)(=O)c1ccc(-c2ccc(S(=O)(=O)CCC(=O)OCC)cc2)cc1,2.4,i,-22.0,-10.4,3.9,5.0,-18.8,·,
CCCn1c(C(O)c2ccc(OCC)cc2)nc2ccccc21 (configuration not stated),-5.6,i,11.0,-3.1,1.1,-9.4,-16.0,-16.1,
CCn1nc(NC(C)=O)c2cc3ccc(C)cc3nc21,-3.2,i,3.3,1.0,5.0,3.3,·,3.0,
CCN(CC)S(=O)(=O)c1cc(C(=O)NC2CCCCC2)ccc1C,-0.2,i,-4.3,-11.7,16.4,0.8,-28.3,-26.1,
CC1CN(CC(O)COc2ccc(C(=O)c3ccccc3)cc2)CC(C)O1 (configuration not stated),10.3,i,26.4,-7.7,-2.9,0.6,-11.5,-8.4,
CCN(CC)S(=O)(=O)c1ccc(N2CCCCC2)c(NC(=O)/C=C/c2ccc(OC)c(OC)c2)c1,9.6,i,-15.2,-2.6,-1.6,-1.0,-0.7,24.7,
O=c1c2ccccc2c(/C=N/n2cnnc2)c(O)n1-c1ccccc1,10.7,i,20.5,-3.8,-4.6,3.3,-8.9,·,
CCSC1=NCCN1C(=O)C(C)(C)Oc1ccc(Cl)cc1,-0.5,i,-1.9,-2.6,-1.3,-0.8,·,24.0,
COc1ccccc1CC(=O)NCCCc1ccccc1,4.5,i,-13.0,-0.4,-3.2,-0.3,-11.1,1.3,
CCCCCN(C(=O)NC(=O)Nc1ccccc1OC)S(C)(=O)=O,3.1,i,-0.9,-4.5,5.2,1.1,-5.3,·,
COCCNC(=S)N/N=C/c1ccc(-c2ccc([N+](=O)[O-])cc2)o1,15.6,i,4.4,92.9,-29.4,1.8,-28.3,-25.1,eIF4H FP inh retest=15.7;PABP polyA inh retest=18.3
Clc1ccc2c(c1)-c1nnc(Br)n1-c1ccccc1S2,-7.2,·,23.6,-6.0,-4.5,-7.3,-17.4,-54.1,
Cc1ccc(NC(=O)c2c3c(nc4ccccc24)CCC3)cc1,-7.9,i,-9.2,0.3,-5.6,-4.4,-0.6,-7.7,
Cc1ccc(/C=C/C(=O)NC(=S)N2CCN(c3ccc(F)cc3)CC2)cc1,-6.4,i,-15.9,2.1,1.5,-2.5,·,-6.8,
Cc1ccccc1OCC(=O)OCC(=O)NCCNC(=O)COC(=O)COc1ccccc1C,·,i,6.8,·,2.2,0.0,·,3.2,
Cc1ccc(/C=N/NC(=O)c2ccc(OC3CCCC3)cc2)o1,2.6,i,·,-5.9,4.6,3.7,-7.8,-1.7,
CCNC(=S)Nc1cc(-c2ccc(Cl)cc2)[nH]n1,2.8,i,3.3,-11.0,-1.4,-4.6,·,6.7,
Cc1ccn2c(CNCC3OCCc4ccccc43)c(C(=O)N3CCCCCC3)nc2c1 (configuration not stated),2.7,i,-5.9,0.5,-3.3,2.4,-4.2,-19.6,
Cc1ccc(CNC(=O)[C@@H](NC(=O)Cc2ccccc2)C(C)C)cc1,-5.6,i,-2.1,-10.6,-1.6,3.1,-17.8,-4.2,
NC(=O)C1C(c2ccccc2)=C1c1ccccc1,-8.2,·,-1.4,1.6,3.9,-5.4,-21.9,35.6,
CCOC(=O)C1CCCN(C(=O)COc2ccccc2F)C1 (configuration not stated),9.1,·,-10.8,6.5,-0.5,3.8,·,3.6,
COc1ccccc1CNC(=O)COC(=O)C1=COCCO1,2.3,i,-14.9,-3.2,0.4,6.1,-5.7,·,
FC(F)(F)c1ccnc(NCc2ccco2)n1,10.9,i,-8.3,-8.0,1.5,2.3,-19.0,-0.5,

# Continuation.
SMILES,PABP polyA inh,Rce1 inh,CSC inhib,eIF4H FP inh,MT1-MMP act inh,MT1-MMP act inh RFP,UUG fidelity,HIV Env fusion,others
COc1cc(C(=O)NC2=C(C#N)CCC2)cc(OC)c1OC,4.6,i,-4.2,15.5,4.7,-2.3,·,13.5,
O=C(CCNC(=O)c1ccc(Br)cc1)Nc1nccs1,-14.8,i,-8.4,1.6,-0.7,0.9,·,-12.0,
CCC(=O)c1cccc2c1N=CC1=C(CC(C)(C)CC1=O)N2,-11.4,i,13.3,4.0,-6.9,-2.2,-3.0,1.8,
COc1ccc2c(c1)CC/C(=C\c1ccc(OC)c(Cn3cccn3)c1)C2=O,-0.6,i,·,-1.3,4.3,-4.0,-21.1,5.0,
COc1ccc(C(=O)N2CCCN(C)CC2)c(OC)c1,-3.4,i,·,-3.5,-3.6,4.7,-9.6,-9.5,
CCN(CC(=O)Nc1ccc(OC)cc1)CC(=O)Nc1ccc2c(c1)OCO2,·,·,-8.6,·,-3.6,1.5,-7.2,-2.1,
NC(=O)c1ccc(NC(=O)C#Cc2ccccc2)cc1,-2.9,i,38.3,1.4,5.1,-7.9,-26.1,22.1,
Cc1[nH]c2ccccc2c1SCC(=O)NNC(=O)Nc1ccc(OC(F)(F)F)cc1,6.1,i,-10.6,-0.6,4.5,2.2,9.9,26.9,
Cc1cc(C)c2nc(SC(C)C(=O)NCC(=O)Nc3ccc(F)c(F)c3F)cc(C)c2c1 (configuration not stated),-0.9,i,-8.4,-9.6,1.8,2.4,·,·,
Cc1nc2ccccn2c(=O)c1NC(=O)c1cccc2ccccc12,·,i,-1.9,·,1.6,0.2,-12.5,-11.9,
O=C(NCc1ccccc1)Nc1cccn(Cc2c(F)cccc2Cl)c1=O,8.7,i,-23.2,-4.7,-2.6,-10.3,·,-15.3,
O=C(CCCCCCCC(=O)N1CCCCC1)N1CCCCC1,·,·,·,·,3.8,-4.7,-10.6,-11.3,
Cc1c(NC(=O)CCCCCN2C(=O)C3C4C=CC(C4)C3C2=O)c(=O)n(-c2ccccc2)n1C (configuration not stated),-4.4,i,-8.8,2.3,3.5,3.6,0.2,18.8,
Cc1c(C(=O)N2CCN(S(=O)(=O)c3cccs3)CC2)oc2ccc(F)cc12,·,·,-11.5,·,-1.6,-1.7,-12.8,·,
COc1ccc2cc(CCNC(=O)CCc3ccccc3)c(=O)[nH]c2c1,-1.4,i,-8.3,-2.6,-1.4,1.4,-16.0,-2.9,
O=c1c(N=Nc2ccccc2)c[nH]n1-c1ccccc1,·,·,·,·,7.3,-2.9,-26.4,-92.4,
COc1ccc(/C=C(\NC(=O)c2ccccc2)C(=O)N2CCN(C)CC2)cc1,5.9,i,·,1.8,-0.2,1.1,-13.9,1.3,
COc1ccc(C)cc1S(=O)(=O)Nc1cc2c3c(c1)C(C)C(=O)N3CCC2 (configuration not stated),·,i,5.6,·,0.5,-1.2,-16.6,-110.7,
Cc1c(NC(=O)C(C)N(c2ccccc2)S(C)(=O)=O)c(=O)n(-c2ccccc2)n1C (configuration not stated),-7.7,i,-16.1,-4.7,3.0,2.7,·,-0.3,
Cn1c(CSCc2ccc(Cl)cc2)nnc1SCC(=O)Nc1nccs1,0.6,i,-6.3,9.1,6.1,-13.0,-8.8,16.5,
CN(Cc1nc2ccccc2c(=O)[nH]1)CC(O)COCc1ccco1 (configuration not stated),-6.8,i,-4.9,3.3,9.3,3.8,-25.2,-1.1,
O=C(Nc1cccc2nsnc12)c1ccc(F)cc1,-0.3,i,-8.6,1.9,1.0,3.3,-14.3,·,
Cc1ccc(C)n1-c1ccc(C#N)cn1,6.0,i,-6.0,2.4,5.4,-0.2,·,-19.3,
CCN(CC(=O)Nc1c(F)cccc1F)C(=O)CNC(=O)COc1ccccc1,·,·,-11.7,·,-2.9,0.9,-6.2,4.7,
COc1ccc(S(=O)(=O)N(CC(=O)NCc2ccncc2)c2ccc(C)cc2)cc1Br,15.5,·,-10.2,-9.9,0.1,2.1,-17.7,7.6,

# Going on with the list.
SMILES,PABP polyA inh,Rce1 inh,CSC inhib,eIF4H FP inh,MT1-MMP act inh,MT1-MMP act inh RFP,UUG fidelity,HIV Env fusion,others
Cc1nc2c(cc1NC(=O)C(C)(C)C)nc(C)n2Cc1ccccc1,2.1,i,-14.0,1.7,-1.5,1.1,-14.2,3.3,
CCCCN(C(=O)c1cccc(S(=O)(=O)N2CCCCC2)c1)C1CCS(=O)(=O)C1 (configuration not stated),0.8,i,10.8,-5.0,-2.6,2.6,·,-2.4,
COc1ccc(S(=O)(=O)N(C)CC(=O)NCc2cccnc2)cc1,-5.3,i,·,-3.9,4.0,7.0,-20.0,43.5,
CCOC(=O)C(NCc1ccc(F)cc1)(NC(=O)c1ccccc1)C(F)(F)F (configuration not stated),5.6,i,-20.3,4.0,-3.6,-4.1,-10.0,-2.6,
COCCN(C(=S)Nc1ccc(C)cc1C)C(C)c1ccco1 (configuration not stated),-0.7,i,6.0,-2.4,-0.5,-0.6,·,6.5,
O=C(OCCCN1CCOCC1)c1ccc(O)c(O)c1,-7.3,i,-13.3,1.1,1.4,-3.6,·,-10.7,
Cc1noc(C)c1NC(=O)N(C)C[C@H]1OCc2cn(nn2)CCCC(=O)N([C@@H](C)CO)C[C@@H]1C,·,·,·,·,4.4,5.8,-5.3&1.6&-7.6,-14.3,
CC(C)NC(=O)Cn1cnc2c1c(=O)n(C)c(=O)n2C,-5.6,i,8.7,1.8,4.3,3.3,-22.3,-20.3,
Fc1ccc(Cn2nnc(-c3ccc(CN4CCOCC4)cc3)n2)cc1,-4.1,i,15.5,1.3,-0.5,-5.5,-3.2,-26.4,
C=CCN1C(=O)C(CC(=O)Nc2ccccc2)S/C1=N/c1nccs1 (configuration not stated),5.7,i,-1.4,-5.4,-1.1,-2.9,·,-3.6,
COc1ccc(OC)c(-n2c(-c3cc(-c4ccco4)[nH]n3)n[nH]c2=S)c1,45.3,i,-1.9,54.0,-4.5,-5.7,·,-25.2,eIF4H FP inh retest=37.8;PABP polyA inh retest=43.4
Cc1ccc(C(=O)NNc2nc3ccccc3nc2C(F)(F)F)cc1,-1.6,i,-4.6,-2.4,-4.3,-4.6,-5.7,·,
CCN(CC(=O)NCc1ccc(F)cc1)C(=O)c1ccc(COc2ccccc2)cc1,-4.3,i,6.8,-12.1,-2.6,-2.6,0.6,-8.9,
C[C@H](CO)N1C[C@H](C)[C@@H](CN(C)Cc2ccc3c(c2)OCO3)Oc2ccc(NC(=O)Cn3cnnn3)cc2C1=O,·,·,-10.8,·,5.8,3.0,-10.4&0.0,-9.1,
NC(c1ccccc1)c1csc(NC(=O)Nc2ccccc2Oc2ccccc2)n1 (configuration not stated),·,·,·,·,-9.3,-7.0,-12.0,33.9,
COc1cc(/C=C2\C(=N)N3N=C(C)SC3=NC2=O)cc(Cl)c1OCCOc1ccc(NC(C)=O)cc1,13.1,i,4.6,20.8,-0.1,4.2,-0.8,8.4,
CCCC[n+]1c(C)sc2cc(OC)ccc21,58.4*,i,·,-3.7,-5.4,0.6,·,5.4,
CCN(CC)CCn1c(=S)[nH]c2cc3c(cc2c1=O)OCO3,-6.5,i,20.2,-9.9,3.3,-0.6,-11.4,-122.1,
CN1C(=O)NC(c2ccccc2[N+](=O)[O-])C2=C1CCCC2=O (configuration not stated),?,i,-11.0,?,-4.1,24.1,-16.4,-1.7,
CC(=O)c1cccc(NC(=O)CCS(=O)(=O)c2cc3c(cc2C)NC(=O)CO3)c1,8.5,i,8.4,2.0,1.5,2.4,-12.4,-22.6,
